HIV Env fusion – inhibitors of HIV Env-mediated cell fusion. HeLa-JRFL Env/CEM21 cell fusion, luciferase. inhibition, % at 12.3 µM. 1.1% of 360,000 active;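 active = mean replicate inhibition score of at least 50 and every replicate individually at or above 50; inconclusive = only one of the two criteria met; inactive = mean below 50 and not all replicates reaching 50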;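 note: 0% = plate neutral controls and 100% = maraviroc near 300 nM; one replicate is shown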
Yeast UUG start – modulators of start codon recognition fidelity in yeast. S. cerevisiae UUG-firefly luciferase reporter, luminescence/redox ratio. activity score, % at 18.7 µM. 0.13% of 350,000 active. AID 602363;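 active = replicate mean at a twofold rise or more, about +100% in these data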;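 note: firefly luciferase made from a UUG start codon reports start codon fidelity; reporter light over untreated wells divided by growth signal over untreated wells; some hits fall short of that in this replicate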
PABP FP inh – PABP-poly(A) binding inhibition; P11940; PABP-poly(A) RNA binding, fluorescence polarization; inhibition, % at 35 µM; 1% of 290,000 active; AID 2014;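 active = 50% or more with normal probe brightness, or confirmed in later tests; inconclusive = above 50% with abnormal brightness, or retests that disagree; inactive = below 50% or failed in later tests; about a fifth of its hits are not listed in these tables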;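 note: calls also rest on retests at 20 µM and on dose response follow-up; controls were probe without protein and protein plus probe with vehicle; some compounds called inactive have numbers as strong as hits; many hits fall short of the cut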
Target sequence (P11940 whole entry, looked up): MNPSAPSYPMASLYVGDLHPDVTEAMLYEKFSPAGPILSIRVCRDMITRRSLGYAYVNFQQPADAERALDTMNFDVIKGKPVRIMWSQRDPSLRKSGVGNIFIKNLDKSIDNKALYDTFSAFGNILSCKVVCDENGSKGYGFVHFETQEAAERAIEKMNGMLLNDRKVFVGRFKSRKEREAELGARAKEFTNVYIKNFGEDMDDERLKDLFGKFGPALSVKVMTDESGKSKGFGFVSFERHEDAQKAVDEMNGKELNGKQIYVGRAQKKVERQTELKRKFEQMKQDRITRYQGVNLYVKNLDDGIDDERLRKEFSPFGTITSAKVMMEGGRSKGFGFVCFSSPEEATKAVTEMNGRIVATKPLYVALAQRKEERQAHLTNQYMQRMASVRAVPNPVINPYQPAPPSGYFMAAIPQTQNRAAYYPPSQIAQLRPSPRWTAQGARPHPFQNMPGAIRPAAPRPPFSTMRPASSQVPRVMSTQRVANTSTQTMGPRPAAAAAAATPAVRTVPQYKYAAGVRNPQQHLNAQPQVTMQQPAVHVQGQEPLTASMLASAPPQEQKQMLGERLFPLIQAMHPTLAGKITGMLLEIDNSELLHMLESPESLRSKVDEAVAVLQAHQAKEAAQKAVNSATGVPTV
eIF4H inh – inhibitors of RNA binding by human eIF4H; inhibition, % at 35 µM; 0.94% of 290,000 active; eIF4H fluorescence polarization binding assay;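 active = 50% or more with normal probe brightness, or confirmed in later tests; inconclusive = above 50% with abnormal brightness, or retests that disagree; inactive = below 50% or failed in later tests; about a fifth of its hits are not listed in these tables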;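 note: calls also rest on retests at 20 µM and on dose response follow-up; 0% = protein and probe with vehicle and 100% = probe without protein; strong numbers were not always called active; many hits fall short of the cut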
CSC inhib – cancer stem cell inhibition. cancer stem cell-like cells viability, luminescence. inhibition, % at 7.5 µM. 1.1% of 300,000 active. AID 2717;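 active = mean at 75% or more and at least half the replicates too; inconclusive = mean and replicates disagree; tested in HMLE shEcad cells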;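 note: 0% = median of negative and 100% = median of positive control wells; the first replicate is given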
MT1-MMP act inh – inhibitors of human MT1-MMP activation | P50281 | HT1080 RFP-PRO-GFP cells, GFP/RFP ratio fluorescence, overnight; percent of plate control window, DMSO zero | GFP/RFP ratio change, % at 20 µM | 0.061% of 360,000 active | AID 651647;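 active = GFP/RFP ratio change of at least 30% with cell ATP level not reduced by more than half and red fluorescence within 50% of control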; note: strong numbers were not always called active
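Material: RFP-PRO-GFP reporter HT1080 cells. Dosing: single-point 20 µM compound, 1% DMSO. Controls: DMSO and RFP-L50D-GFP cell wells. Timing: cells overnight before dosing, compound overnight, 37 °C, 5% CO2. Measure: GFP/RFP fluorescence ratio.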
Rce1 inh – inhibitors of yeast Ras-converting enzyme; Q03530; yeast membranes, quenched prenylated peptide cleavage fluorescence; calls only; 0.27% of 290,000 active; AID 2563;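 active = fall in fluorescence gain of 50% or more versus controls, with final raw signal at or below 3038400; inconclusive = same 50% fall but final raw signal above 3038400; inactive = fall in fluorescence gain under 50%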;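 note: plate controls were neutral control wells for no effect and wells lacking membranes for full effect; tested at 10 µM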
Target sequence (Q03530 whole entry, looked up): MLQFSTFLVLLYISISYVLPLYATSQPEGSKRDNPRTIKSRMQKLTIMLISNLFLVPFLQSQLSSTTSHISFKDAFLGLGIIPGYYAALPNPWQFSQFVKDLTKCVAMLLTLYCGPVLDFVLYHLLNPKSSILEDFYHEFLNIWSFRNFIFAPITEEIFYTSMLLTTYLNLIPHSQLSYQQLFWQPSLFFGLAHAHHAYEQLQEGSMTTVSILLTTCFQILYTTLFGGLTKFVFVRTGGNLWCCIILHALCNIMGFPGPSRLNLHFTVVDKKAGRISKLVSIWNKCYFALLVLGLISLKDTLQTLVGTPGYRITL
MT1-MMP act inh RFP – second read-out of MT1-MMP act inh, no call of its own (marks repeat the call); RFP signal change, %; measured here: RFP expression control read;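 0 = vehicle wells; hits needed this value within 50% of zero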
The depositor's hits bear a star; i = inactive; u = inconclusive; x = not tested or not shown. Some of the compounds tested (hit frequency here may not be typical).

SMILES	HIV Env fusion	Yeast UUG start	PABP FP inh	eIF4H inh	CSC inhib	MT1-MMP act inh	MT1-MMP act inh RFP	Rce1 inh
CSc1ncnc2c1ncn2CCCNCCCN1CCCC1=O	-47	-3	x	x	x	0	5	x
COc1ccc(S(=O)(=O)N2CCCCC2)cc1NC(=O)c1c(F)cccc1Cl	29	-5	x	x	x	-4	0	x
CC(C)c1ccc(NC2CCCN(C(=O)c3ccco3)C2)cc1 (configuration not stated)	-2	-8	-1	-9	24	0	-5	i
Cc1[nH]c2c(Br)cccc2c1[C@H]1[C@@H](CC#N)C1(C)C	-39	-10	-2	-4	61	-7	-6	i
CCNC(=O)C1(C)CCCN(Cc2ccc(-n3ccnc3)cc2)C1 (configuration not stated)	-10	-11	x	x	x	1	1	x
Cc1ccccc1NS(=O)(=O)c1ccc(C(=O)NCC(c2ccco2)N2CCCCC2)cc1 (configuration not stated)	9	-3	x	x	-6	0	-12	i
CC1CCCCC1NC(=O)CNC(=O)c1cccs1 (configuration not stated)	-3	-12	x	x	-4	0	5	i
CCCCC[C@@H](/C=C/C1C(=O)C=C[C@H]1C/C=C\CCCC(=O)OC)OC(C)=O (some centres not stated)	-313	-1	x	x	x	-2	-4	x
COc1ccccc1NC(=O)c1cc(N)cc(C(=O)Nc2ccccc2OC)c1	3	x	x	x	-3	2	-1	i
COc1ccc(C(C(=O)NC2CCCCC2)N(C(=O)Cc2c[nH]c3ccccc23)c2ccccc2C)cc1OC (configuration not stated)	20	x	2	4	5	-6	-7	i
CC1Cc2ccccc2N1S(=O)(=O)c1cccc2nsnc12 (configuration not stated)	10	-1	12	-12	-8	4	-9	i
COc1cc(-c2nnc(-c3cc(OC)c(OC)c(OC)c3)o2)cc(OC)c1OC	x	-8	14	3	-1	4	3	i
COc1ccc(OC)c(-c2cn(S(=O)(=O)c3ccccc3)nc2N)c1	-31	-12	-4	8	2	9	2	i
NC(=O)C1(N2CCCCC2)CCN(Cc2nc3ccccc3c(=O)[nH]2)CC1	x	-16	-8	-8	-15	3	5	i
CCOC(=O)c1[nH]c2ccc(OCC)cc2c1CCCN1C(=O)c2ccccc2C1=O	24	x	13	-10	-8	-4	-8	i
CN1CCN(C(=O)CNC(=O)c2cccs2)CC1	-8	x	x	x	-16	2	1	x
CC(=O)c1ccc(OCCCC(=O)n2nnc3ccccc32)cc1	-98	1	3	1	11	-2	3	i
Cc1ccc(S(=O)(=O)N(C)C)cc1NC(=O)COC(=O)c1ccc2c(c1)OCCO2	4	2	4	0	-10	3	1	i
NC(=O)c1ccc(NS(=O)(=O)c2ccc3ccccc3c2)cc1	5	-12	-3	-6	-8	3	1	i
CCOc1ccccc1N(CC(=O)NCc1ccco1)C(=O)CCC(=O)Nc1nccs1	-6	-10	9	4	-14	-1	-1	x
CC1(C)CC(=O)C(=Cc2cn(-c3ccccc3)nc2-c2ccc(Cl)cc2)C(=O)C1	x	2	-3	-11	45	2	2	i
COCOCCn1cc(CN2CCS(=O)(=O)N(Cc3ccc(-c4ccc(C)cc4)cc3)C(C(C)C)C2=O)nn1 (configuration not stated)	12	-13	x	x	x	-2	-4	x
C=CCn1c(C(C)NC(=O)c2cccs2)n[nH]c1=S (configuration not stated)	x	-11	-16	0	-6	-1	3	i
CNC(=S)Nc1ccc(Nc2ccccc2)cc1	-100	-29	-14	0	x	3	0	i
Cc1ccc(S(=O)(=O)N2[C@@H](c3ccc(F)cc3)C(C(=O)O)=CC[C@H]2c2cccc(C)c2)cc1	-8	-6	x	x	3	-3	1	x
COc1ccc(N2CCN(C(=O)c3ccc(CSc4ccccc4)cc3)CC2)cc1	7	-13	-7	-3	57	2	3	i
O=CN1Cc2ccccc2-c2ccccc2C1	-8	-5	4	-16	-6	1	4	i
Cn1cnnc1SCNC(=O)C(F)(F)F	x	x	9	5	-11	4	6	i
CCC(=O)c1ccc(OCC(O)CN2CCN(S(=O)(=O)c3ccc(NC(C)=O)cc3)CC2)cc1 (configuration not stated)	7	-7	0	-10	-12	2	-5	i
C=CCN1C(=O)CSc2ccc(C(=O)N3CCC(C)CC3)cc21	3	7	1	-2	10	0	-1	i
CN1Cc2ccccc2N(CC(=O)NCc2ccccc2)C1=O	-13	x	11	0	-8	-1	0	i
Cc1ccc2nc(Cn3cc(C(F)(F)F)ccc3=O)cc(=O)n2c1	-1	-25	1	1	-1	0	3	i
CN(C(=O)c1ccc2c(c1)CCO2)C(C)(C)C	4	2	-1	-11	5	1	1	i
Cn1c(=O)[nH]c2c(Cl)nccc21	6	x	6	-10	-18	4	3	i
CC(C)CCn1c(Br)nc2c1c(=O)n(CC(N)=O)c(=O)n2C	15	-19	-8	24	x	1	6	i
Cn1c(-c2ccc([N+](=O)[O-])cc2)nc2ccccc21	-32	-11	-6	-13	5	-2	-2	i
CC(=O)Oc1ccc(NC(=O)CSc2ccccc2)cc1	x	-14	-2	-2	12	4	0	i
O=S1(=O)C=C(Sc2nc3ccccc3s2)c2ccccc21	x	x	-9	-1	141*	x	x	i
Cc1nc2n[nH]c(N)c2c2c1CCCC2	-61	-13	2	-2	-10	3	3	i
Cc1cccc(Oc2sc(C(=O)c3ccccc3)c(N)c2C#N)c1	x	-9	-11	-1	20	-5	-12	i
Cc1c(Cl)c([N+](=O)[O-])nn1CCCC(=O)NC1CCCCC1	1	-13	-4	-14	-8	1	1	i
CCN(CC)C(=O)CSc1nnc(COc2ccccc2)n1CC	x	-6	-2	-2	-9	3	7	i
CCOC(=O)N1CCN(C(=O)c2cnn3c(C(F)F)cc(-c4ccc(C)cc4)nc23)CC1	x	14	1	-2	-9	1	-2	i
COc1cc(C(=O)Nc2ccc(C)cc2)c2ccccc2n1	-340	10	4	-1	50	2	-8	i
CC(C)OC(=O)c1ccc(COc2ccc3ccc(=O)oc3c2)o1	-3	-6	1	1	-13	1	1	x
CC(C)CCNC(=O)CCc1nnc2ccc(N3CCC(C)CC3)nn12	20	-16	6	4	-10	0	1	i
CCOc1ccccc1NC(=O)CCn1c(=O)oc2ccccc21	-44	-8	1	6	13	11	13	i
O=C(CCCn1c(=O)[nH]c2ccsc2c1=O)N1CCN(c2ccccn2)CC1	i	-8	-4	-9	-5	4	7	i
CCCCNC(=O)C(NC(=O)c1ccc(=O)[nH]c1)C(=O)c1ccccc1 (configuration not stated)	-4	-19	x	x	x	2	4	x
CC(C)(C)CNC(=O)c1ccc2c(c1)S(=O)(=O)c1cc(Cl)ccc1C2=O	-31	-12	x	x	-13	2	2	x
CCNc1nc(NCC)n2c(SCC(=O)Nc3ccc(OC(F)F)cc3)nnc2n1	14	x	x	x	x	4	4	i
Cc1ccc(OCC(=O)OCCN2C(=O)c3ccccc3C2=O)cc1C	x	x	5	-2	4	7	9	i
COc1ccc(NC(=O)C(=O)N/N=C\c2ccc(CNC(=O)C(=O)Nc3ccc(C)c(C)c3)o2)c(OC)c1	x	x	5	40	x	x	x	i
COc1ccccc1-c1cc(C(F)(F)F)n2ncc(C(=O)N3CCc4ccccc4C3)c2n1	8	5	-7	-8	-9	-7	-10	i
Cc1ccc(NCc2nnc(SCC(=O)O)n2-c2ccc(C)cc2)cc1	-2	-43	6	7	-15	-6	3	i
N#Cc1cccc2cnccc12	x	24	-1	-10	-12	-7	-2	x
Cc1ccccc1S(=O)(=O)N1C[C@H]2CON(C)[C@H]2C[C@H]1c1cccc(Oc2ccccc2)c1	33	-8	x	x	x	-9	-5	x
COc1ccc(CCN2C(=O)CSC2c2ccc(F)cc2)cc1 (configuration not stated)	-30	13	-1	-2	-16	0	-4	i
CCCNC(=O)NC(=O)COC(=O)c1cccc(NS(=O)(=O)c2ccc(F)c(F)c2)c1	21	-8	4	3	12	4	4	i
Cc1cc(OC(C)C(=O)NCCCN2CCOCC2)ccc1Cl (configuration not stated)	-17	-12	-12	-4	-2	1	2	i

(more compounds)
SMILES	HIV Env fusion	Yeast UUG start	PABP FP inh	eIF4H inh	CSC inhib	MT1-MMP act inh	MT1-MMP act inh RFP	Rce1 inh
O=C(OCn1nnc2ccccc2c1=O)C1CCCCC1	x	7	-2	-4	-4	-4	-1	i
CCc1ccccc1N(CC(=O)NCCSCc1ccco1)S(C)(=O)=O	x	-32	-5	4	-7	-10	-5	x
CC1(C)Oc2ccc(NC(=O)c3ccco3)cc2O1	x	-17	-5	-9	3	2	4	i
Cc1cc2c(cc1C)NC(c1c(C)n(C)n(-c3ccccc3)c1=O)C1=C(CC(C)(C)CC1=O)N2 (configuration not stated)	-35	-13	u	u	x	-39	-4	i
Cc1ccc(CNC(=O)C2CCN(S(=O)(=O)c3cccnc3)CC2)cc1	-4	-6	6	-15	-15	0	2	i
Cc1cc(-n2cccn2)ccc1CN1CCN(CC(C)C)C(CCO)C1 (configuration not stated)	7	-4	7	-9	53	-5	-1	i
N#CCCN1CCN(C(=S)c2ccc(-c3cccc(Cl)c3)o2)CC1	x	-19	48	46	8	-10	-7	i
CCN(CC)c1ccc(S(=O)(=O)N(CC)CC)cc1NC(=O)c1cccnc1	30	4	5	-1	-9	-2	-1	i
CCOC(=O)N1CCC(=NNC(=O)COc2ccc(OC)cc2)CC1	16	x	10	8	-6	1	6	i
COc1cc(=O)n2c(-c3ccccc3)csc2n1	-23	-4	8	-2	-3	11	7	i
CCCCNC(=O)C1c2ccccc2Oc2ccccc21	8	x	-3	-7	-5	-1	-1	i
CNC(=O)c1sc(NCc2ccccc2OC)nc1C	-16	-16	12	4	x	5	3	i
COc1ccccc1NC(=O)Cc1noc(CSc2n[nH]c(N)n2)n1	-11	x	-10	-8	-9	-1	2	x
Fc1ccc(N2CCN(c3cnc4ccccc4n3)CC2)cc1	-47	-6	6	2	x	0	-6	i
O=C(CCC(=O)N1CCOc2ccccc21)NCCCN1CCCCC1	x	-17	-19	-6	0	2	1	i
Cn1c(=O)c2c(SCC(=O)NCc3ccco3)nc(CC(C)(C)C)nc2n(C)c1=O	-12	-3	1	-10	x	-3	0	i
CCN(CC)S(=O)(=O)c1cccc(-c2cn3cccnc3n2)c1	1	-12	8	2	-9	-1	-2	i
COc1cccc(-c2ccnc3[nH]n(-c4ccccc4)c(=O)c23)c1	-14	-13	-6	1	-7	-2	-5	i
COc1ccc(/C=C/C(=O)OCC(=O)NC2CCCC(C)C2C)cc1S(=O)(=O)N1CCOCC1 (configuration not stated)	7	x	3	2	x	1	-3	i
O=C(/C=C/c1cccc([N+](=O)[O-])c1)OCC(=O)N1CCCCC1	0	-1	x	x	x	-2	-2	x

Taken from above for reference:
SMILES	HIV Env fusion	Yeast UUG start	PABP FP inh	eIF4H inh	CSC inhib	MT1-MMP act inh	MT1-MMP act inh RFP	Rce1 inh
CSc1ncnc2c1ncn2CCCNCCCN1CCCC1=O	-47	-3	x	x	x	0	5	x
COc1ccc(S(=O)(=O)N2CCCCC2)cc1NC(=O)c1c(F)cccc1Cl	29	-5	x	x	x	-4	0	x

Continuation:
SMILES	HIV Env fusion	Yeast UUG start	PABP FP inh	eIF4H inh	CSC inhib	MT1-MMP act inh	MT1-MMP act inh RFP	Rce1 inh
COc1ccc(OC)c(/C=N\Nc2nccs2)c1	-7	-21	x	x	x	0	4	i
CC(=O)c1cccc(NC(=O)Nc2cnn(Cc3ccc(F)cc3)c2)c1	x	x	-3	0	x	x	x	i
N/C(=N\c1nc2ccccc2o1)NC(=O)c1ccccc1Br	-44	15	-5	8	9	5	-5	i
Cc1cc(-c2ccccc2)c(C#N)c(N)n1	x	-2	7	1	2	-1	0	i
O=C(NCCCN1CCCC1=O)c1ccccc1NS(=O)(=O)c1ccc(Br)cc1	-28	1	10	-4	-10	15	12	i
Cc1ccc(Nc2nc(CSc3nnc(-c4cccs4)o3)cs2)cc1	x	-35	-3	-9	-1	2	-6	i
COC(=O)\C(C(C)=O)=C(/C=C/C=C/N(C)C)N(C)C	9	-1	u	u	6	-2	5	i

Bioassay records from PubChem BioAssay.
